Screens from PubChem BioAssay.
Cruzain Triton = cruzain (T. cruzi) inhibition with detergent | P25779 | 200,000 compounds, 0.43% hits | Potency, µM, without a hit: max response, negative = inhibition, hits mostly inhibitors | purified cruzain, Z-FR-AMC fluorescence, 0.01% Triton | AID 1478;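 note: plate controls were neutral wells for no effect and buffer without enzyme for full effect; nearly all actives have a fitted effect of over 40% in size; top concentration of the series not given in the record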
Target sequence (P25779 123-467 limits assumed): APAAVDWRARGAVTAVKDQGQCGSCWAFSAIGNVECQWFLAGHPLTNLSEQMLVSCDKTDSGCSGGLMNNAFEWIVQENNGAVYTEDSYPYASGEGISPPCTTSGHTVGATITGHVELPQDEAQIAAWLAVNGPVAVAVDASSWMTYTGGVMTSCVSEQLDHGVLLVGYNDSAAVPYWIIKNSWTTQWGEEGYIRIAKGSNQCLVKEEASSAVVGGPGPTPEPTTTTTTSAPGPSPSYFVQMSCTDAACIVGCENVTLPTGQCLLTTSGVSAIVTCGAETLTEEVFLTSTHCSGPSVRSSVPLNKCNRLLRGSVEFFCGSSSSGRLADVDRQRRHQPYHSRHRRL
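Detergent-containing run (0.01% Triton X-100) in acetate buffer pH 5.5 with 5 mM DTT: enzyme at 1.5 nM final, 15 min compound preincubation at room temperature, then 2 uM Z-FR-AMC substrate. Activity taken as 60 s fluorescence increase at 360/450 nm.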
NS1 function inh = inhibitors of influenza NS1 protein function | 270,000 compounds, 0.4% hits | Potency, µM (top dose mostly 46.1 µM), for inactives: at the highest dose activity, positive = more growth | S. cerevisiae slowed by influenza A NS1, growth recovery by OD600; active means well fitted rising curve with a large enough effect; inconclusive means small, poorly fitted or top-dose-only effect; inactive means no such curve, though single readings can be large or run the other way; note: nearly all actives have a fitted effect of over 50% in size
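OD600 was taken as the measure of yeast growth restored by compound in an NS1-expressing S. cerevisiae strain. Cells had been washed out of glucose medium and diluted 1:100 into galactose -URA medium, pH 6.0.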
Cruzain inh noDet = cruzain (T. cruzi) inhibition without detergent. P25779. purified cruzain, Z-FR-AMC fluorescence, no detergent. Potency, µM, for inactives: max response, negative = inhibition, usual class: inhibitors. 200,000 compounds, 2.3% hits. AID 1476;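 note: plate controls were enzyme without inhibitor for no effect and buffer without enzyme for full effect; nearly all actives have a fitted effect of over 40% in size; top concentration of the series not given in the record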
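Purified cruzain at 1.5 nM, pre-incubated 15 min with compound at room temperature in 100 mM sodium acetate pH 5.5, 5 mM DTT, 0.00005% Triton X-100. Reaction started with 2 uM Z-FR-AMC; AMC fluorescence increase over 60 s gives rate.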
An asterisk follows results filed as active; ? = inconclusive. Unless noted, calls come from the whole dose curve; as a rule, active = well fitted curve in the direction sought with a large enough effect; inconclusive = small, poorly fitted or top-dose-only effect, or another doubt; inactive = no such curve, though single readings can be large; an effect the other way counts as inactive or inconclusive. Potency is the fitted concentration of half-maximal effect.

SMILES | Cruzain Triton | NS1 function inh | Cruzain inh noDet
COc1ccc(C[C@@H]2C(=O)N[C@H](C)C(=O)N(C)[C@@H]3Cc4ccc(cc4)Oc4cc(ccc4O)C[C@H](C(=O)N[C@@H](C)C(=O)N[C@H](C)C(=O)N2C)N(C)C3=O)cc1 | 4.5% | -5% | ?
CN(C)c1ccc(/C=N\NC(=O)c2cnc3ccccc3c2)cc1 | 0.6% | -5% | -2%
Nc1nc2nc3c(nc2c(=O)[nH]1)CN(c1ccc(C(=O)O)cc1)C3=O | 1.9% | -1% | 6%
O=C(O)CC(CC(=O)O)C(=O)O | 2.2% | 0% | -2%
C[C@H](NCCN(C)C)[C@@H]1CCC2C3CCc4cc(O)ccc4[C@H]3CCC21C (stereo partly drawn) | 8.3% | -11% | 1%
O=C(O)c1cc(Cl)cc(Cc2cc(Cl)cc(C(=O)O)c2O)c1O | -1.6% | -3% | -6%
CC1=C/C(=N/O)C([C@H]2C=C(C)CC(C)(C)[C@@H]2O)C(C)(C)C1 (stereo partly drawn) | -3.9% | -3% | 3%
O=C(O)/C=C(/C(=O)O)[C@]12CCN3CC4=CCO[C@@H]5CC(=O)N[C@@H]1C5[C@H]4C[C@H]32 (stereo partly drawn) | -5.4% | -5% | 7%
C[C@@H](C(=O)O)/C(=C/c1ccc2c(c1)OCO2)C(=O)O | 1.4% | -9% | 0%
O=C(O)[C@@H]1CCN(Cc2oc(CO)cc(=O)c2O)C1 | 4.2% | -3% | 9%
CC(C)CCNc1ncnc2[nH]ncc12 | 8.8% | 0% | 5%
N=C(CC(=O)Nc1ccccn1)c1ccccc1 | 7.1% | -1% | -12%
C[C@H](CN(C)C)C(=O)c1ccccc1C(=O)O | 4.4% | -1% | 1%
O.O.[NH-]C1(C(=O)O)CCCC1.[NH-]C1(C(=O)O)CCCC1.[Ni+2] | 2.9% | 0% | 1%
O=c1ccnc(SCc2ccc(Cl)cc2)[nH]1 | 2.3% | -9% | 6%
N#CS.N=C=S.N=C=S.[Cu].[NH2-].[NH2-].[NH2-].[NH2-].c1ccc2ncccc2c1 | -0.5% | 1% | 20%
CC(CCN)(CCN)[N+](=O)[O-] | 2.6% | -4% | 1%
c1ccc(CCN2CCN=C2Cc2ccccc2)cc1 | 3.2% | 0% | 3%
CN1CCc2nc(N)nc(-c3nc(N)nc4c3CN(C)CC4)c2C1 | 4.2% | 0% | 3%
Cc1cc(CN2CCCCC2)c(O)c(CN2CCCCC2)c1 | 0.3% | -5% | -9%
Cc1cc2ccccc2c[n+]1CC(O)C[n+]1cc2ccccc2cc1C | 3.3% | 1% | 8%
CN(C)CCC(C#N)(c1ccccc1)c1ccccc1 | 8.3% | -6% | 0%
O=C(O)c1oc(C(=O)O)c(C(=O)O)c1C(=O)O | 2.9% | -1% | 7%
CCOc1ccccc1Nc1ccc(N)cc1S(=O)(=O)O | -1.5% | 3% | 10%
NCCc1c[nH]c2ccc(OC(=O)C(=O)O)cc12 | -1.8% | -3% | 8%
SMILES | Cruzain Triton | NS1 function inh | Cruzain inh noDet
Nc1ccc(S(=O)(=O)c2ccc(NCN3C(=O)NC(=O)C(=O)C3=O)cc2)cc1 | -2.7% | 8% | -4%
O=C1c2cccc([N+](=O)[O-])c2C(=O)N1c1ncn[nH]1 | 1.4% | 7% | 8%
O=C(O)C12CC3(C(=O)O)CC(C(=O)O)(CC(C(=O)O)(C1)C3=O)C2=O | 2.6% | 0% | 6%
O=C1c2ccccc2[C@@H]([C@@H]2c3ccccc3C(=O)c3cc(Br)ccc32)c2ccc(Br)cc21 | -4.7% | -11% | -4%
O=C(O)CSCc1cccc2ccccc12 | 2.8% | -3% | -4%
C[C@@H](NC(=O)C1(N)CCCC1)C(=O)O | 2.1% | -3% | 10%
CCc1ccc(CCC(=O)O)nc1 | 2.3% | -3% | -2%
O=[N+]([O-])c1cc(Cc2cc([N+](=O)[O-])c3cccnc3c2O)c(O)c2ncccc12 | 1.7% | -1% | -3%
C[C@H](Br)C(=O)c1ccc2cc(Br)c3ccccc3c2c1 | -8.5% | -7% | 10%
Cc1cc(C)c(O)c(Cc2cccc(Cc3cc(C)cc(C)c3O)c2O)c1 | 1.1% | -3% | 4%
CCn1c(CCCc2nc3c([nH]2)c(=O)n(C)c(=O)n3C)nc2c1c(=O)n(C)c(=O)n2C | -6.6% | -5% | -3%
O=C(O)CCCN1CCCCC1 | 3.0% | -8% | 6%
N#C[C@H]1CN[C@H](N)N[C@@H]1N | 2.0% | 1% | 4%
CC(C)C(O)(C(C)C)C(C)C | 4.4% | 0% | 4%
Cc1onc(-c2c(F)cccc2Cl)c1C(=O)N[C@@H]1C(=O)N2[C@H]1SC(C)(C)[C@H]2C(=O)O | 0.2% | -1% | 10%
CN(Cc1cccc2ccccc12)Cc1cccc2ccccc12 | -0.5% | -7% | -3%
Cc1cc(C(C)(C)C)cc(CNC2CCCCC2)c1O | 11% | -6% | 0%
S=C(Nc1ccc2c(c1)Cc1ccccc1-2)Nc1ccc2c(c1)Cc1ccccc1-2 | -2.3% | 0% | -4%
O=[N+]([O-])c1ccc(S(=O)(=O)Cc2ccccc2)c2nonc12 | -5.9% | 7% | -9%
CN(C)CCn1c(CO)nc2c1c(=O)n(C)c(=O)n2C | 2.2% | 8% | 3%
O=C(O)C[C@H]1OCC=C2CN3CC[C@]45c6ccccc6N[C@@H]4[C@H]1[C@H]2C[C@H]35 | 0.5% | -6% | 4%
O=C(O)[C@H]1CC=CC[C@@H]1C(=O)Nc1cccc(O)c1 | 13% | 17% | ?
C[C@]12CN(CC[N+](C)(C)C)C[C@]1(C)[C@@H]1CC[C@@H]2O1 | 0.7% | 2% | 6%
O=C(CSc1nc2ccccc2c2ccccc12)c1ccccc1 | -8.1% | -3% | 4%
O=C(O)c1cccc([As]=[As]c2cccc(C(=O)O)c2)c1 (stereo not drawn) | 4.8% | 2% | 13%

4 entries from above, with each value named.
CCc1ccc(CCC(=O)O)nc1
  Cruzain Triton: 2.3%
  NS1 function inh: -3%
  Cruzain inh noDet: -2%
O=[N+]([O-])c1cc(Cc2cc([N+](=O)[O-])c3cccnc3c2O)c(O)c2ncccc12
  Cruzain Triton: 1.7%
  NS1 function inh: -1%
  Cruzain inh noDet: -3%
C[C@H](Br)C(=O)c1ccc2cc(Br)c3ccccc3c2c1
  Cruzain Triton: -8.5%
  NS1 function inh: -7%
  Cruzain inh noDet: 10%
Cc1cc(C)c(O)c(Cc2cccc(Cc3cc(C)cc(C)c3O)c2O)c1
  Cruzain Triton: 1.1%
  NS1 function inh: -3%
  Cruzain inh noDet: 4%

Continued.
SMILES | Cruzain Triton | NS1 function inh | Cruzain inh noDet
Cc1ccc(S(=O)(=O)O[C@@H]2[C@H]([C@@H]3COC(C)(C)O3)O[C@H]3OC(C)(C)O[C@@H]32)cc1 | -0.3% | -1% | 3%
COc1ccc(-c2csc3c2[N+]2=CCC=C2C3=O)cc1 | -8.1% | -15% | -7%
Clc1ccccc1/C=C\c1ccnc2ccccc12 | -5.5% | -19% | 1%
OC1(C(O)(c2ccc(-c3ccccc3)cc2)c2ccc(-c3ccccc3)cc2)CCCCC1 | 12% | -8% | -2%
C/C(=N/O)c1ccc2cc(Br)c3ccccc3c2c1 | -6.5% | -4% | 0%
CCOC(=O)[C@@H]1[C@@H]2c3ccccc3-c3ccccc3[C@H]2C[C@H]1O | 0.0% | -16% | -7%
COc1cc(CCN)c(OC)c(OC)c1 | 3.2% | 0% | 9%
Oc1c(C(O)(c2ccccc2)c2ccc3ccccc3c2O)ccc2ccccc12 | -2.2% | -8% | ?
O=C(Nc1ccc(-c2cn3ccccc3n2)cc1)c1cc(Br)ccc1O | -7.0% | 0% | 0%
Oc1ccc([C@H](O)C2CCCCN2)cc1O (stereo partly drawn) | 1.3% | 0% | 3%
Nc1nc(N)c(N=Nc2ccc([As](=O)(O)O)c(O)c2)c(N)n1 | -2.9% | -10% | 0%
Nc1nc2c(c(=O)[nH]1)CN(CCCN1CCOCC1)CN2 | 4.2% | 8% | 9%
COc1ccc(/C=C(\C#N)C(N)=O)c(OC)c1 | -6.1% | 11% | 7%
C1CCN(CC[C@@H]2CCCCN2)CC1 | 3.1% | -3% | -9%
Nc1nc(-c2ccccc2)c(-c2ccccc2)c(-c2nc(N)nc(-c3ccccc3)c2-c2ccccc2)n1 | 2.5% | -3% | -1%
O=C(CSC1=NCCN1)Nc1ccccc1 | 0.0% | 1% | -4%
C(=Nc1ccc2c(c1)Cc1ccccc1-2)c1ccccn1 | 0.1% | -1% | -10%
Nc1ccc(-c2ccc(Nc3cc(S(=O)(=O)O)c(N)c4c3C(=O)c3ccccc3C4=O)cc2)c(S(=O)(=O)O)c1 | 2.9% | 2% | -1%
O=C(O)CCC(=O)c1ccc[nH]1 | 0.9% | 0% | 12%
COC(=O)CCCC(=O)O | 3.9% | 3% | 17%
N[C@@H](CSC1c2ccccc2-c2ccccc21)C(=O)O | -1.4% | -1% | -10%
O=C(O)COc1c(Cl)cc(Cl)c2cccnc12 | 2.2% | -4% | -2%
CCn1c2ccccc2c2nnc(NCCCO)nc21 | 4.3% | 0% | 9%
Cc1c(S(=O)(=O)O)ccc(N=Nc2c(O)c(C(=O)O)cc3ccccc23)c1Cl | -1.8% | 5% | 1%
CC[C@H]1CN(C)[C@H]2Cc3c([nH]c4ccccc34)C(=O)C[C@H]1[C@H]2C(=O)OC | -0.3% | 13% | -3%
SMILES | Cruzain Triton | NS1 function inh | Cruzain inh noDet
N[C@H](Cc1ccc2oc3cc(=O)c4ccccc4c-3nc2c1)C(=O)O | -3.9% | 3% | -3%
CC(C)(C)c1ccc(CN2CCN([C@H](c3ccccc3)c3ccc(Cl)cc3)CC2)cc1 | 8.4% | -10% | 9%
O=[As](O)(O)c1ccc(Cc2ccc([As](=O)(O)O)cc2)cc1 | 3.9% | -39% | ?
COc1cc2c(cc1O)C[C@@H]1c3c(cc(O)c(OC)c3-2)CCN1C | 1.6% | -3% | -5%
CCOC(=O)[C@]1(CC(=O)O)CCCC1=O | 3.5% | 1% | -7%
Cn1c(=S)c2[nH]c(SCCN3C(=O)c4ccccc4C3=O)nc2n(C)c1=O | 1.7% | 0% | 8%
O=[N+]([O-])c1nccn1C[C@H](O)CN1CCCCC1 | -2.3% | 3% | -1%
O=C(C[C@H](c1ccccc1)c1c(O)c2ccccc2oc1=O)c1ccccc1 | -7.0% | 6% | -12%
O=S(=O)(O)c1cc(S(=O)(=O)O)c2c(N=Nc3cccc4ccccc34)c(O)ccc2c1 | 2.7% | -3% | 22%
CCc1ccc2c(c1)N(C[C@H](C)CN(C)C)c1ccccc1S2 | -1.3% | 0% | 0%
CN(CCc1ccccn1)c1ccc2c(c1)Cc1ccccc1-2 | -6.0% | -8% | -20%
CSCC[C@@H](C(=O)O)N(C)C | 1.8% | 5% | 2%
N/C(=N\O)c1cn([C@@H]2O[C@@H](CO)[C@H](O)[C@@H]2O)c2ncnc(NO)c12 | -1.4% | -5% | 1%
O=C(O)[C@H]1[O][Sb][O][C@@H](C(=O)O)C1O (stereo partly drawn) | 6.3% | -13% | 3%
CCCCn1cnc2c(SC)ncnc21 | 2.8% | -5% | -5%
CC(C)(SCc1ccccc1)[C@H](N)C(=O)O | 1.2% | 3% | -5%
Cc1ccc(C2=C(Cl)C(=O)C(c3ccc(C)cc3)=C(Cl)C2=O)cc1 | 3.5% | -8% | 1%
C[C@@H]1c2ccccc2Cn2cc3c(c21)C(=O)c1cccc(OP(=O)(O)OCc2ccccc2)c1C3=O | 1.3% | -3% | 9%
N[C@@H](Cc1ncccn1)C(=O)O | 0.0% | -2% | -8%
COc1ccc(N(CC(=O)O)N=O)cc1 | 3.1% | -3% | 3%
NC(=O)[C@@H]1CCCN1Cc1ccc2c(c1)OCO2 | 5.5% | -7% | 0%
O[C@@H](C1=C/C(=C\c2ccncc2)c2ccccc21)c1ccncc1 | -2.2% | -9% | 4%
c1ccc2c(c1)Sc1ccccc1N2C[C@H]1CN2CCC1CC2 | -2.8% | -4% | -5%
OCCNc1ncnc2c1ncn2[C@@H]1O[C@@H](CO)[C@H](O)[C@@H]1O | 0.2% | -4% | 10%
CC(C)(C)COS(=O)OCC(C)(C)C | 2.5% | 8% | 9%
COc1cc2c(cc1OC)C(CCN)=NCC2 | 1.0% | 2% | 5%
Cn1c(=O)c2c(nc(NCCNc3nc4c(c(=O)n(C)c(=O)n4C)n3C)n2C)n(C)c1=O | -1.8% | -5% | 3%
O=C1CCC(c2ccccc2)=NN1c1nc2ccccc2s1 | 5.6% | -9% | 0%
C[C@H](CC(=O)O)C(C(=O)O)C(=O)O | -2.1% | -1% | 1%
CCN(CCO)C[C@H]1CCC[C@H]2CCCC[C@@H]21 | -1.6% | -1% | -3%

An excerpt. The share of hits here may be higher or lower than overall.
